PINK1 expr mod: A Quantitative High throughput Screen to Identify Chemical Modulators of PINK1 Expression | PINK1 immunofluorescence, high-content cytometry, 24 h | Potency, µM (titrated, usually from 76.6 µM), inactives show at the top dose activation (PINK1 increase), usual class: activators | 0.2% of 410,000 active; active = well fitted activation curve with a large enough effect; inconclusive = small, poorly fitted or top-dose-only effect; inactive = flat fitted curve, though single readings scatter; cell line not stated here;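 also: potency is read from the fitted curve at half-maximal effect; % of control where 0% means no effect; nearly all actives have a fitted effect of over 65% in size; a mitochondrial uncoupler was the plate control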
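Measures PINK1 amount and localization on or inside mitochondria by immunofluorescence. Stable cells get compounds at 5 concentrations for 24 hours before fixation and staining; CCCP controls included.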
TRPML1 ag: qHTS for Agonists of the Human Mucolipin Transient Receptor Potential 1 (TRPML1); AID 624414, 2012; 0.12% of 410,000 active; Mucolipin-1 (Homo sapiens), Q9GZU1; TRPML1-expressing cells, Ca2+ dye fluorescence, FDSS; host cell line not named in the record; reference of the full effect not given here; activation, % (no concentration beside the values); in the data active = activation above about 50%; inconclusive = about 30% to 50%; inactive = below about 30%; also: 0% is about no effect; the text of the record puts the active cut at 80%
Target sequence (Q9GZU1 whole entry, looked up): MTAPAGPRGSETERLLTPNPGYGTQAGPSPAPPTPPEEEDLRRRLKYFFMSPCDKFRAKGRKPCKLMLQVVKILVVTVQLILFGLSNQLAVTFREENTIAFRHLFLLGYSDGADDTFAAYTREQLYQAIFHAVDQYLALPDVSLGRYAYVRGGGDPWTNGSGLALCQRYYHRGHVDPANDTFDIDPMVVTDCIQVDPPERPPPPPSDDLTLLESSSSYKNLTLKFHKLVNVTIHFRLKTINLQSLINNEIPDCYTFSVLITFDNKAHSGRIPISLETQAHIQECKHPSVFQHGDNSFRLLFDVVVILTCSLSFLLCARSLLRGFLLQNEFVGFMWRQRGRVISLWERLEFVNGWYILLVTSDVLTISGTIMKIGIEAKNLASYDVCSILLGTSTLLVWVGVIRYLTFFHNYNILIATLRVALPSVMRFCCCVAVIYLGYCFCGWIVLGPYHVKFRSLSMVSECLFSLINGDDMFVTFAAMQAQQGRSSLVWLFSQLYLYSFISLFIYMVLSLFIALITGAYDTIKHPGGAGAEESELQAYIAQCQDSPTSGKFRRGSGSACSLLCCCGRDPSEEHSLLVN
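Tet-induced TRPML1-DL cells, 1,500 per well, cultured overnight, were loaded with a no-wash Ca2+ dye for 45–90 min. Calcium fluorescence was recorded on the FDSS for 110 s after compound addition, before the EC80 agonist (4 uM 54-4) was added.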
An asterisk follows results filed as active; ? = inconclusive; & = joins results of further samples. The list is partial (hit frequency here may not be typical).

mol | TRPML1 ag | PINK1 expr mod
Cn1cnc2c(NCc3ccccc3)nc(Cl)nc21 | -0.2 | 1.0%
O=C(C[n+]1cccc(Br)c1)c1cc(Cl)ccc1Cl | 2.6 | 0.4%
O=C(CNC(=O)C1CCCCC1)OCC(=O)c1ccc2c(c1)CCC2 | -0.7 | 2.1%
COc1ccc(CNc2ncnc3nc[nH]c23)cc1OC | -0.5&-0.3 | 1.2%&0.6%
O=C1c2ccccc2NC(c2ccc3c(c2)OCO3)N1Cc1ccco1 (stereo not given) | 0.2 | 0.2%
CC(SC1=NS(=O)(=O)c2ccccc21)C(=O)O (stereo not given) | -0.9 | 0.3%
COc1cc2nc(N3CCCCC3)nc(NC3CC3)c2cc1OC | -0.4 | 0.9%
CN(C)CCCCCCNc1cc(N2CCN(C)CC2)ncn1 | -0.4 | -1.0%
C=CC[n+]1ccnc2ccccc21 | -0.3 | 0.6%
N#CN=c1snc(-c2ccccc2)n1-c1ccc(Br)cc1 | -0.9 | -0.6%
COc1ccc(-c2nc3ccc(NC(=O)CO)cc3c(=O)n2Cc2cccc(Cl)c2)cc1COc1ccc(NC(C)=O)cc1 | -0.2 | 1.0%
COc1ccc(CC(=O)NO)cc1 | -0.4 | 1.2%
Cc1ccc(S(=O)(=O)N2CCN(c3nc(-c4ccc(CN5CCNCC5)s4)nc4ccccc34)CC2)cc1 | -0.6 | -0.7%
CC1CCCCN1C(=O)COC(=O)c1ccc(S(C)(=O)=O)c([N+](=O)[O-])c1 (stereo not given) | -0.7 | -0.5%
CCNc1nc(C#N)nc(N2CCCCC2)n1 | -0.7 | 1.0%
O=C1CN(CCN2CC(=O)NC(=O)C2)CC(=O)N1 | -0.4 | 0.1%
Cc1ccc(-c2nc3ccccn3c2Nc2ccccc2C)o1 | -0.5 | 0.1%
O=c1[nH]/c(=C\c2ccc([N+](=O)[O-])cc2)c(=O)[nH]/c1=C\c1ccc([N+](=O)[O-])cc1 | 0.3 | 2.6%
CCOC(=O)c1cc(C#N)c(SC(C(=O)N2CCCCC2)c2ccccc2)nc1C (stereo not given) | -0.3 | 8.2%
O=C(COC(=O)c1ccccc1OCCOc1ccccc1)Nc1ccc(Br)cc1 | -1.1 | 0.9%
CC(C)(C)c1ccc(O)c(N=Cc2cccc([N+](=O)[O-])c2)c1 | -0.4 | 0.4%
Cc1ccc(Nc2nc(NCc3ccco3)nc3nccnc23)cc1 | -0.1 | -0.5%
O=C(NCCc1nc2ccccc2n1CCOc1ccc2ccccc2c1)C1CCCCC1 | -0.4 | 1.6%
O=S(=O)(N1CCN(c2nc(-c3cccs3)nc3ccccc23)CC1)C(F)(F)F | 0.2 | 0.1%
Cc1ccc(CSc2nnc(-c3ccc(NC(=O)CCc4ccccc4)cc3)n2C)cc1 | -0.3 | 0.5%
CN(C)c1ccc(N=Cc2ccncc2)cc1 | -0.8 | 0.1%
Cc1csc(B(O)O)c1 | -0.5 | 0.2%
O=C(C[n+]1csc2ccccc21)c1ccc(O)c(O)c1 | -1.0 | 2.1%
COc1cc(N(C)C)c(OC)cc1/C=C1\C=Cc2ccccc21 | 0.0 | 1.7%
CC(=O)Oc1ccc2nonc2c1OC(C)=O | 0.7 | -0.5%
N[C@@H](Cc1ccc(O)cc1)C(=O)NO | -0.6 | 0.2%
COC(=O)c1ccc(C2NC(c3ccc4c(c3)OCO4)=CC(c3ccccc3O)N2)cc1 (stereo not given) | 0.0 | 2.6%
Brc1ccc[n+](CCC2CCCCC2)c1 | 0.2 | 1.0%
CCC(=O)Nc1ccc(-c2nnc(SCc3ccccc3)n2C)cc1 | -0.4 | 0.1%
CC1(C)CC(=O)C2=C(C1)NC(Nc1nc3ccccc3o1)=NC2c1ccccc1 (stereo not given) | -0.9 | -0.7%
OCCNc1ncnc2oc(-c3ccco3)c(-c3ccco3)c12 | 1.0 | 0.2%
Cc1ccc(-c2nc3cc(Cl)ccc3o2)cc1NC(=O)COc1ccccc1C | -0.3 | 2.8%
C=C1C=C(C(F)F)n2ncc(C(=O)N3CCN(c4ccccn4)CC3)c2N1 | -0.2 | -0.2%
COc1ccc2c(c1)C=C/C2=C/c1ccc(N(C)C)cc1 | 0.0 | 4.4%
O/N=C(/C[n+]1csc2ccccc21)c1ccccc1 | -0.3 | -0.8%
COc1ccc(C2Nc3ccccc3C(=O)N2Cc2ccccc2)cc1COc1ccc([N+](=O)[O-])c(C)c1 (stereo not given) | -0.4 | 0.9%
COc1ccc(CN(Cc2ccccc2)C(C)=O)cc1COc1ccc(NC(C)=O)cc1 | -1.2 | 2.1%
Clc1ccc2c(ccc[n+]2CCc2ccccc2)c1 | 0.2 | 0.6%
COc1cc([C@@H]2c3cc4c(cc3[C@H](O)[C@H]3COC(=O)[C@@H]23)OCO4)cc(OC)c1OC | -1.1 | 6.8%
CNc1c(Cl)cc(/C=C2\C=Cc3ccccc32)cc1Cl | 0.1 | -0.2%
COc1ccc(C2NC(c3ccc4c(c3)OCO4)=CC(c3ccccc3O)N2)cc1OC (stereo not given) | 0.3 | 0.7%
CN(C)c1ccc(/C=C/C=C2/C=Cc3ccccc32)cc1 | -0.5 | 1.0%
Clc1cccc(CNc2ncnc3nc[nH]c23)c1 | -1.3 | 1.3%
O=C(CBr)c1ccc(Oc2ccc(C(=O)C[n+]3cccc(Br)c3)cc2)cc1 | -0.4 | 0.7%
CCCN(CCC)c1nc(N)nc(C#N)n1 | -1.0 | -0.4%
Cc1ccc(OCCCCn2c(CCNC(=O)C3CCCCC3)nc3ccccc32)cc1 | -0.9 | 0.4%
O=CC(=O)c1ccc(F)cc1 | -0.9 | 1.2%
C[C@@H](NCCCc1cccc(C(F)(F)F)c1)c1cccc2ccccc12 | 1.9 | ?
COc1cc(OC)c(/C=C/c2ccnc3ccccc23)c(OC)c1 | -0.6 | 9.0%
O=C(Nc1ccccc1)c1ccc(-n2nncc2-c2ccccc2)cc1 | -0.5 | 0.0%
Cc1ccccc1-c1nc2c(=O)n(C)c(=O)nc-2n(C)n1 | 0.4 | -0.3%

Additional compounds follow:
mol | TRPML1 ag | PINK1 expr mod
CN(C)c1ccc(/C=C2\c3ccccc3-c3ccc(N(C)C)cc32)cc1 | -0.2 | 2.4%
O=C(O)CCc1cccc2ccccc12 | -0.4 | 0.3%
O=C(Nc1nnc(-c2ccccc2)s1)C1CCCN(C(=O)c2ccoc2)C1 (stereo not given) | -0.4 | -1.0%
CCc1cnc2ccccc2c1/C=C/c1ccc(N(C)C)cc1 | -0.1 | 7.4%
CN(C)c1ccc(/C=C/c2cccc3ccccc23)cc1 | -0.5 | 9.8%
CCCN(C)CCCOc1cc2nc(N3CCCN(C)CC3)nc(NC3CCN(C)CC3)c2cc1OC | 0.4 | -0.9%
O=C(COc1ccccc1C(=O)Nc1ccccc1)Nc1ccc(-c2ccccc2)cc1 | -0.4 | 2.0%
CC(C)(C)c1ccc(NC(=O)COC(=O)c2ccccc2OCC(=O)Nc2ccc(Br)cc2)cc1 | 0.5 | 0.2%
CN(CCCc1cnc[nH]1)C(=S)NCCCN(Cc1ccc(Cl)cc1)c1ccc(Br)cn1 | -0.3 | 0.6%
COc1ccc(CCn2c3c(c(=O)[nH]c2=S)CN(C(C)C)CN3)cc1OC | -0.6 | 2.1%
CCOc1cc(-c2ccc3c(c2)OCO3)cc(=[O+]CC)c2c(C)oc(C)c12 | 0.6&-0.4 | -0.9%&0.1%
O=C(COc1ccccc1C(=O)OCC(=O)N1CCOCC1)Nc1ccc(Br)cc1 | -0.5 | 0.3%
CCCN1CNc2c(c(=O)[nH]c(=S)n2CCc2cccc(C)c2C)C1 | -0.5 | -0.7%
CN(CCCN(Cc1ccc(Cl)cc1)c1ccc(Br)cn1)C(=S)NCCCc1cnc[nH]1 | 1.9 | -1.0%
CN(C)c1ccc(/C=C/c2cccc3cc4ccccc4nc23)cc1 | 0.4 | -0.6%
CN(C(=O)COc1ccccc1C(=O)Nc1ccccc1)c1ccccc1 | 0.3 | -0.2%
OC(Cc1ccc2ccccc2n1)c1ccc(Cl)c(Cl)c1 (stereo not given) | 0.1 | 3.9%
CN(C)c1ccc(/C=C/c2nc3ccccc3o2)cc1 | -0.1 | 1.3%
CN(C)c1ccc(/C=C/c2cc[n+]([O-])c3ccccc23)cc1 | 0.1 | 0.5%
CC1=Nc2ccccc2/C1=C(/C)c1c(C)[nH]c2ccccc12 | -0.3 | 0.1%
CCC1=C[C@@H]2CN(C1)Cc1c([nH]c3ccccc13)[C@@](C(=O)OC)(c1cc3c(cc1OC)N(C)[C@H]1[C@@](O)(C(=O)OC)[C@H](OC(C)=O)[C@]4(CC)C=CCN5CC[C@]31[C@@H]54)C2 | -0.9 | 3.2%
Cn1c(SCC(=O)NCc2ccco2)nnc1-c1cccc(NC(=O)c2ccccc2)c1 | -0.4 | -0.7%
CN(C)CCCCCCNc1nccc(N2CCN(C)CC2)n1 | -0.3 | 0.2%
CCn1c(SCC(=O)NCc2ccco2)nnc1-c1ccc(N(C)C)cc1 | -0.7 | -0.3%

Part of the list above in another layout.
O=S(=O)(N1CCN(c2nc(-c3cccs3)nc3ccccc23)CC1)C(F)(F)F
  TRPML1 ag = 0.2
  PINK1 expr mod = 0.1%
Cc1ccc(CSc2nnc(-c3ccc(NC(=O)CCc4ccccc4)cc3)n2C)cc1
  TRPML1 ag = -0.3
  PINK1 expr mod = 0.5%
CN(C)c1ccc(N=Cc2ccncc2)cc1
  TRPML1 ag = -0.8
  PINK1 expr mod = 0.1%
Cc1csc(B(O)O)c1
  TRPML1 ag = -0.5
  PINK1 expr mod = 0.2%

Other entries follow.
mol | TRPML1 ag | PINK1 expr mod
O=S(=O)(c1ccccc1Br)N1CCN(c2nc(-c3cccs3)nc3ccccc23)CC1 | -0.3 | -0.5%
CN(C)CCNc1nccc(N2CCN(C)CC2)n1 | -0.3 | -0.2%
CC(=O)NCCCN(Cc1ccc(Cl)c(Cl)c1)c1ccc(Br)cn1 | -0.8 | 4.0%
O=C(Nc1cccnc1Cl)c1cnn2c1NC(=C1CC1)C=C2C(F)F | -0.5 | 1.5%
Cc1cc(Cl)nc2nc(Cl)ccc12 | -0.3 | 1.3%
CC(Sc1nnc(-c2ccccc2)n1C)C(=O)NCc1ccco1 (stereo not given) | -0.8 | 0.8%
COc1ccc(Nc2c(-c3ccc(C)o3)nc3ccccn23)cc1 | -1.2 | 1.6%
Cc1nc(Sc2nnnn2C2CC2)c2c(-c3ccccc3)csc2n1 | -0.9 | 1.8%
O=C(C[n+]1ccncc1)c1cccc2ccccc12 | -0.4 | 1.6%
O=C(Cc1ccc(OCc2ccccn2)cc1)NO | -0.4 | 0.1%
O=C(COc1ccccc1C(=O)Nc1ccccc1)Nc1ccccc1Br | -0.2 | -0.2%
c1ccc(-c2csc3ncnc(Sc4nnnn4-c4ccccc4)c23)cc1 | 0.1 | 2.8%
O=C(NCCCc1cnc[nH]1)NCCCN(Cc1ccc(Cl)cc1)c1ccc(Br)cn1 | 0.1 | -1.0%
COC(=O)C1=C(C)NC(C)=C([N+](=O)[O-])[C@H]1c1ccccc1C(F)(F)F | -0.8 | 1.9%
CCc1sc(-c2cc3cccc(OC)c3oc2=O)nc1-c1ccccc1 | -0.2 | 2.2%
O=C(Nc1nc(-c2cccs2)cs1)C1CC(=O)N(c2ccc3c(c2)OCCO3)C1 (stereo not given) | -0.6 | 0.1%
Cn1c(SCC(=O)NCc2ccco2)nnc1-c1ccc(NC(=O)c2ccccc2)cc1 | -0.5 | -0.2%
C=C1C=C(C(F)F)n2ncc(C(=O)NCc3ccc(Cl)cc3Cl)c2N1 | -1.1 | 2.2%
O=C(O)CSC1=NS(=O)(=O)c2ccccc21 | 0.3 | 7.7%
COc1ccc(OC)c(/C=C/c2c3ccccc3cc[n+]2C)c1 | -0.5 | 4.2%
CCCNc1nc(Nc2ccc([N+](=O)[O-])cc2)nc(N2CCOCC2)n1 | -0.7 | 2.8%
O=C(C[n+]1ccccc1Br)c1ccc(F)cc1 | 0.7 | 0.3%
CS(=O)(=O)c1ccc(C(=O)OCC(=O)N2CCCC2)cc1[N+](=O)[O-] | -0.5 | 8.1%
CCCCNC(=O)Cn1c(SCc2ccccc2C)nc2ccncc21 | -0.8 | -0.2%
Cc1cccc2c(/C=C/c3ccc(N(C)C)cc3)ccnc12 | 6.9 | 0.3%
O=[N+]([O-])c1ccccc1/C=C/c1ccnc2ccccc12 | -1.0 | 0.0%
CC(=O)Nc1nc(-c2ccccc2)c(-c2ccccc2)s1 | -0.1 | 3.1%
O=C(O)c1ccc(NC(=O)c2cc3c([nH]c2=O)CCCC3=O)cc1 | -0.3 | -0.8%
COc1ccc(N2CCN(C(c3ccccc3)c3nnnn3C(C)C)CC2)cc1 (stereo not given) | 61* | 0.6%
COc1cc(C2Nc3ccccc3C(=O)N2Cc2ccco2)ccc1O (stereo not given) | -0.4 | 1.2%
O=C(Nc1ccc(Br)cn1)c1cnn2c1NC(=C1CC1)C=C2C(F)F | -0.8 | 1.4%
CCOc1c2c(c(-c3ccc4c(c3)OCO4)c3cc(OC)c(OC)cc13)C(=O)OC2 | -0.9 | 14µM*
CC(C)(C)C(=O)OCCNc1nc(-c2cccs2)nc2ccccc12 | -0.1 | 1.6%
CCCCCc1cc[n+](CC(=O)c2ccccc2)cc1 | -0.5 | -0.7%
COc1cc(/C=C2/C=Cc3ccccc32)ccc1N(C)C | -0.7 | 8.6%
COc1cc2ncnc(N3CCN(C(=O)Nc4ccc(Oc5ccccc5)cc4)CC3)c2cc1OC | -0.7 | 1.8%

High-throughput results (PubChem BioAssay)
